S aureus helic: inhibitors of S. aureus replicative helicase, primary screen, biochemical, fluorescence unwinding readout. replicative DNA helicase (DnaC/DnaB), Staphylococcus aureus. purified S. aureus helicase, fluorescence unwinding assay; about half of the hits fall short of the stated cut. inhibition, %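 (tested at about 80 µM)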. 120,000 compounds, 0.05% hits;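 active = both duplicates at 50% or more, or one of them with a favoured structure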;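 note: 0% = mean of negative control wells and 100% = mean of positive control wells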
MgrA-DNA mod: S. aureus MgrA activity modulators, primary screen, biochemical, S. aureus Newman, fluorescence polarization; 84,000 compounds, 0.13% hits; MgrA-DNA binding; inhibition, %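 (about 10 µg/mL by stock and volumes)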;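 active = above 50% in either of two replicates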;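 note: 0% = protein plus DNA without compound and 100% = DNA alone without protein; higher means less MgrA bound to DNA so lower polarization; one replicate is shown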
Active calls of the source: *; / = not tested or not shown.

SMILES	S aureus helic	MgrA-DNA mod
CCOC(=O)c1cccc(NC(=O)CCc2ccccc2)c1	-14.0	0.1
COC(=O)CC1(C(=O)OC)Oc2ccc(Br)cc2C(=O)N1c1ccc(F)cc1F (configuration not stated)	/	-1.0
O=c1cc(-c2nc3ccccc3s2)oc2ccccc12	0.0	-0.1
Nn1c(SCC(=O)NCc2ccc3c(c2)OCO3)nnc1C1CC1	-7.0	/
Cc1cnc(NS(=O)(=O)c2cn(C)cn2)c(Br)c1	/	-1.9
Nc1c(S(=O)(=O)c2ccccc2)nnn1-c1ccccc1	12.0	/
CCOC(=O)c1ncoc1-c1ccc(Cl)cc1	/	-0.8
O=C(N/N=C/c1cccc2ccccc12)c1cccnc1	/	-2.4
CN(C)c1ncc(C(=O)O)cn1	-9.0	/
O=C(c1ccc2cn[nH]c2c1)N1CCC2(CC1)OCCO2	-5.0	/
CC1(C)C2CCC1(CS(=O)(=O)N1CCCc3ccccc31)C(=O)C2 (configuration not stated)	-11.0	-1.9
CCOC(=O)c1c(Cl)nc2ccccc2c1Cl	-2.0	/
O=S(=O)(CCSc1ccc(Cl)cc1)CCSc1ccc(Cl)cc1	/	2.5
N#C/C(=C\Nc1cc(C(F)(F)F)cc(C(F)(F)F)c1)S(=O)(=O)c1ccc(Cl)cc1	/	2.4
CC(=O)N[C@@H](C)C(=O)N1CCN(S(=O)(=O)c2ccc(Cl)cc2)CC1	-6.0	/
O=C(CCN1C(=O)/C(=C/c2ccc(Cl)cc2Cl)SC1=S)Nc1nccs1	/	0.9
O/N=C/c1cc2c(cc1Br)OCO2	/	-1.6
Nc1ncc(-c2nc3ccccc3s2)c(N)n1	/	10.2
Nn1c(CCC2CCCCC2)n[nH]c1=S	7.0	/
O=C(c1ccccc1)N1CCN(C(=O)c2nn3c(C(F)(F)F)cc(-c4ccco4)nc3c2Cl)CC1	/	-2.9
O=C(Nc1n[nH]c(C2CCCCC2)n1)C1CCCCC1	2.0	-0.6
O=C(COc1ccc(Cl)cc1)CC(=O)c1ccc(Cl)cc1	6.0	2.9
COC(=O)c1ccc(OC(=O)C(C)C)cc1	6.0	0.0
Cc1nc(C(=O)Nc2ccccc2)sc1C(=O)Nc1ccccc1	/	1.2
CCn1c(SCc2cc(=O)oc3cc(O)ccc23)nc2ccccc21	-1.0	/
Cc1ccccc1Cn1c(-c2cccs2)noc1=O	8.0	3.5
CC(=O)OC[C@H]1O[C@@H](O[C@H]2[C@H](OC(C)=O)[C@@H](OC(C)=O)[C@H](OC(C)=O)O[C@@H]2COC(C)=O)[C@H](OC(C)=O)[C@@H](OC(C)=O)[C@H]1OC(C)=O	/	-1.5
Cc1cccc(OCc2nnc(SCc3csc(Nc4ccccc4C)n3)o2)c1	4.0	/
CCCN(CCC)c1nc(OC)nc(OC)n1	23.0	-0.8
Cc1cc(NC(=O)NN2CCOCC2)nn1-c1c(Cl)cc(Cl)cc1Cl	-37.0	/
CCOc1ccc(NC(=O)CS(=O)(=O)c2cccc3nsnc23)cc1	9.0	/
Cc1cc(-c2ccc(C)c(S(=O)(=O)N3CCCN(Cc4ccc(F)cc4)C3)c2)on1	25.0	/
Cc1ccc(S(=O)(=O)c2nc(C(C)(C)C)oc2N2CCOCC2)cc1	8.0	-0.1
CCCCCc1ccc(NC(=O)NNc2ccc(F)c(Cl)c2)cc1	/	1.7
COc1ncnc2sc(-c3ccccc3)cc12	-15.0	-0.8
O=C(O)/C=C/C(=O)N(Cc1ccccc1)Cc1ccccc1	7.0	2.5
COc1ccc(C2c3cc4c(cc3OC(C)(N3CCCC3)C2C)OCO4)cc1 (configuration not stated)	14.0	2.1
O=C1c2ccccc2-c2nc(-c3ccccc3)cc3cccc1c23	7.0	3.3
COc1ccc(CCNC(=O)COc2cc(C)c3ccccc3n2)cc1	16.0	0.2
O=C(NCc1ccc(N2CCOCC2)cc1)c1cc(F)cc2c1OCOC2	/	-3.2
O=C(Cn1nnc2sc3c(c2c1=O)CCCC3)OCc1ccccc1	5.0	/
COC(=O)c1c(N)sc(C(=O)N2CCCC2)c1C	-1.0	1.6
Cc1nc2sccn2c1/C=N/NC(=O)C12CC3CC(CC(C3)C1)C2	13.0	/
CCCCN(Cc1ccco1)S(=O)(=O)c1c[nH]c(C(=O)OC)c1	22.0	/
CC1CC(C(=O)O)C(C(=O)O)CC1C (configuration not stated)	/	-1.8
O=C(CSC(=O)c1ccccc1)Nc1ccc(Br)cc1F	-13.0	2.4
O=C(c1cnn2ccccc12)N1CCC(C(O)(c2ccccc2)c2ccccc2)CC1	18.0	0.3
Cc1cc(C)c2c(c1)NC(=O)CC2c1cccc(Cl)c1Cl (configuration not stated)	10.0	2.0
COc1cc(C(CC(=O)O)N2Cc3ccccc3C2=O)cc(OC)c1OC (configuration not stated)	34.0	/
COC(=O)c1ccc(-c2ccco2)n1CC(=O)N1CCCC1	13.0	-0.2

The list goes on:
SMILES	S aureus helic	MgrA-DNA mod
COC(=O)c1sc(N)c(C(=O)OC)c1CN1C(=O)c2ccccc2S1(=O)=O	-9.0	/
O=C1CSCC(=O)N1c1ccc(OC(F)(F)F)cc1	-15.0	/
CCc1nc2cccnc2n1-c1ccc(CC(=O)N2CCCCCC2)cc1	10.0	/
O=C(NCCc1ccco1)c1ncoc1-c1cccs1	1.0	/
COc1ccccc1/C=C/C(=O)Nc1ccccn1	-20.0	/
COc1ccc(N2CCN(c3ccc(NS(=O)(=O)c4ccccc4)nn3)CC2)cc1	10.0	/
COC(=O)c1ccc(CSc2nnc(-c3ccccc3)o2)o1	6.0	-4.2
O/N=C1\CCCc2[nH]c3ccccc3c21	/	-2.1
Cn1c(SCC2CCCCO2)nnc1-c1ccccc1 (configuration not stated)	-15.0	-0.6
Cc1nn(-c2ccccc2)c(Cl)c1C(=O)Nc1sc2c(c1C(N)=O)CCCC2	-5.0	/
CN(C)C(=O)c1cnn(-c2ccccc2)c1NC(=O)c1ccc(Br)cc1	11.0	/
N#Cc1ccc(NC(=O)CCCSc2nc3ccccc3s2)cc1	9.0	/
CCCNC(=O)c1sc2nc(-c3ccccc3)cn2c1C	24.0	/
CCOC(=O)C(C)Oc1ccc2ccc(=O)oc2c1 (configuration not stated)	12.0	/
Cc1cc(OCC(=O)NCCO)cc(C)c1Cl	2.0	-0.3
COc1cc(Nc2nc3ccccc3c3nnc(C)n23)cc(OC)c1OC	22.0	/
COC1CS(=O)(=O)CC1OC (configuration not stated)	9.0	/
c1ccc2c(c1)nc1n2CCN1CCNC1CCCCC1	-4.0	1.0
COc1cccc(CNC(=O)c2ccc(N3CCCC3=O)cc2)c1OC	3.0	0.6
CC(C)Sc1nc2c([nH]c3ccccc32)c(=O)n1-c1ccccc1	-1.0	/
C=CCn1c(Sc2ncc(C#N)c(N)n2)nnc1-c1cccs1	13.0	/
CN1/C(=C\C(=O)COC(=O)C2CC(=O)N(Cc3ccccc3)C2)C(C)(C)c2ccccc21 (configuration not stated)	-20.0	/
Cc1c(C(=O)NN)nn(-c2ccccc2)c(=O)c1C#N	3.0	-0.1
Cc1cccc(Nc2ncnc3nc[nH]c23)c1	8.0	/
CCCN1Cc2cccc(C(=O)N3CCN(c4ccccc4)CC3)c2C1=O	0.0	0.2
CC(Sc1nnc(-c2ccco2)n1-c1ccccc1)C(=O)c1ccc(Br)cc1 (configuration not stated)	-2.0	/
Cc1ccc(C(=O)O)cc1NC(=O)c1cccc(Cl)c1	-4.0	/
O=C(Nc1cccc2ccccc12)C12CC3CC(CC(C3)C1)C2	8.0	2.2
O=C(c1ccccc1)N1CC(=O)N2CCc3ccccc3C2C1 (configuration not stated)	13.0	0.1
O=C(Nc1nnc(CCS(=O)(=O)c2ccc(Br)cc2)s1)c1cccs1	/	0.2
Cc1ccc2c(=O)cc(-c3ccccc3C(=O)O)oc2c1	46.0	/
CCc1ccccc1N(C)C(=O)Cc1nc(-c2ccc(OC)cc2)no1	34.0	/
CC(C)=NNC(=O)c1c(O)c2ccccc2[nH]c1=O	21.0	/
Cc1cc(=O)n(CC(=O)N2CCc3ccccc32)c2c1c(C)nn2-c1cccc(F)c1	12.0	/
N#Cc1ccccc1NC(=O)c1cccc(C(F)(F)F)c1	13.0	/
O=C(Oc1cncc(Cl)c1)c1cc2ccccc2s1	/	-3.7
OCCSc1nc(-c2cccs2)nc2ccccc12	24.0	/
O=C(c1cc(Cl)sc1Cl)N1CCc2ccccc21	-14.0	/
C=CCn1c(C(C)Oc2ccc(Cl)cc2Cl)n[nH]c1=S (configuration not stated)	/	-1.5
Nc1nc2nc(-c3ccccc3)cc(-c3ccccc3)n2n1	-5.0	-0.5

Full records, quoted from the list. Screens in order: S aureus helic, MgrA-DNA mod
CCc1ccccc1N(C)C(=O)Cc1nc(-c2ccc(OC)cc2)no1 as listed: 34.0, /
C=CCn1c(C(C)Oc2ccc(Cl)cc2Cl)n[nH]c1=S (configuration not stated) as listed: /, -1.5

Next section
SMILES	S aureus helic	MgrA-DNA mod
O=C(Nc1nccs1)c1ccccc1C(=O)Nc1nccs1	0.0	-2.7
C=CCOc1cc(OCC=C)cc(C(=O)O)c1	/	-2.8
CC(C)Cn1cc(NC(=O)N2CCCCC2c2cccnc2)c2ccccc2c1=O (configuration not stated)	8.0	/
Cc1ccc(C)c(Cn2cnc3c(nnn3Cc3ccccc3F)c2=O)c1	17.0	/
COc1cc2c(cc1OC)C(COc1ccc(F)cc1)N(C(=O)c1ccc(Cl)cc1)CC2 (configuration not stated)	0.0	3.2
CN=C(Nc1ccc(Cl)cc1)c1cccnc1	/	0.8
NC(=O)c1c(NC(=O)c2cc(-c3ccccc3)on2)sc2c1CCCC2	-16.0	8.8
O=C(COC(=O)C1CC2CCCC(C1)C2=O)NC1CCCc2ccccc21 (configuration not stated)	11.0	/
CCOC(=O)CSc1nnc(CNc2cccc(C(F)(F)F)c2)n1CC	15.0	-0.4
Cc1nn2c(Br)c(C34CC5CC(CC(C5)C3)C4)nc2s1	-6.0	/
O=C(NC1CCCC1)c1ccc(Cn2c(=O)[nH]c3ccsc3c2=O)cc1	-2.0	/
CCOc1ccc(-c2cc(C(=O)OC)c3ccccc3n2)cc1	6.0	/
CCC(C)(C)NC(=O)c1ccc2c(=O)n3c(nc2c1)CCC3	-17.0	/
O=C(CSc1nc2ccccc2c(=O)[nH]1)c1cc2ccccc2o1	/	-2.1
Cc1ccc2c(c1Br)C(=C(C#N)C#N)C(=O)N2	14.0	27.8
CC(Oc1ccccc1Br)C(=O)N1CCc2ccccc21 (configuration not stated)	12.0	4.4
COC(=O)c1ccccc1NC(=O)CN(c1ccccc1)S(C)(=O)=O	9.0	2.7
CN(C)/C=N/S(=O)(=O)c1cc(C(F)(F)F)cc(C(F)(F)F)c1	/	2.6
Cc1nc(CSc2nnc(Cc3cccc4ccccc34)n2N)cs1	14.0	/
CCN1C(=O)c2ccccc2S(=O)c2ccc(C(=O)NCCN3CCN(Cc4ccccc4)CC3)cc21 (configuration not stated)	2.0	/

4 of the compounds above, field by field.
CCC(C)(C)NC(=O)c1ccc2c(=O)n3c(nc2c1)CCC3
  S aureus helic: -17.0
  MgrA-DNA mod: /
O=C(CSc1nc2ccccc2c(=O)[nH]1)c1cc2ccccc2o1
  S aureus helic: /
  MgrA-DNA mod: -2.1
Cc1ccc2c(c1Br)C(=C(C#N)C#N)C(=O)N2
  S aureus helic: 14.0
  MgrA-DNA mod: 27.8
CC(Oc1ccccc1Br)C(=O)N1CCc2ccccc21 (configuration not stated)
  S aureus helic: 12.0
  MgrA-DNA mod: 4.4

Next part.
SMILES	S aureus helic	MgrA-DNA mod
O=c1[nH]cnc2sc(-c3ccccc3)cc12	/	-0.8
Cn1c(-c2ccc3c(c2)OCO3)cn2cc(-c3ccc(Br)cc3)nc12	1.0	0.9
O=C(CN1C(=O)c2ccccc2S1(=O)=O)c1ccc2c(c1)OCCO2	-5.0	/
Cc1cc2nc3s/c(=C/c4cc([N+](=O)[O-])c(N5CCCCC5)cc4N4CCCCC4)c(=O)n3c2cc1C	/	0.1
CCOc1ccc(N=CNc2ccc(OCC)cc2)cc1	6.0	-2.1
O=c1ccc(S(=O)(=O)N2CCCC2)cn1Cc1nc2ccccc2s1	-6.0	/
O=C1OCc2ccccc21	-29.0	/
CCOC(=O)CNc1nn2c(=O)c3ccc(C(=O)OC)cc3nc2s1	5.0	/
O=S(=O)(c1ccccc1)n1ccc2ccccc21	7.0	/
CCN(CC)S(=O)(=O)c1ccc(-c2ccc(S(=O)(=O)N(CC)CC)s2)s1	/	-0.9

Entries above that have a furan ring, fused or not:
SMILES	S aureus helic	MgrA-DNA mod
O=C(c1ccccc1)N1CCN(C(=O)c2nn3c(C(F)(F)F)cc(-c4ccco4)nc3c2Cl)CC1	/	-2.9
CCCCN(Cc1ccco1)S(=O)(=O)c1c[nH]c(C(=O)OC)c1	22.0	/
COC(=O)c1ccc(-c2ccco2)n1CC(=O)N1CCCC1	13.0	-0.2
O=C(NCCc1ccco1)c1ncoc1-c1cccs1	1.0	/
COC(=O)c1ccc(CSc2nnc(-c3ccccc3)o2)o1	6.0	-4.2
CC(Sc1nnc(-c2ccco2)n1-c1ccccc1)C(=O)c1ccc(Br)cc1 (configuration not stated)	-2.0	/
O=C(CSc1nc2ccccc2c(=O)[nH]1)c1cc2ccccc2o1	/	-2.1

(next part)
SMILES	S aureus helic	MgrA-DNA mod
Cc1nc2nc(N3C(=O)c4ccc(C(=O)O)cc4C3=O)[nH]n2c(=O)c1Cc1ccccc1	20.0	/
O=C(COC(=O)Cc1ccsc1)Nc1ccc(C(F)(F)F)cc1	16.0	-0.2
CC(Nc1cccc(C(=O)NC2CC2)c1)C(=O)N1CCNC1=O (configuration not stated)	-4.0	/
FC(F)(F)c1nc(NC2=NCCCCC2)n[nH]1	-2.0	/
NC(N)=NS(=O)(=O)c1ccc(NC(=O)c2ccc(Cl)cc2)cc1	6.0	-1.6
CCOC(=O)c1c(Cl)[nH]c2ccccc2c1=O	4.0	/
CCN(Cc1ccccc1)CC(O)COc1ccc(Cl)cc1Cl (configuration not stated)	-22.0	/
CCN1/C(=C/c2sc3ccccc3[n+]2CCO)Sc2ccccc21	44.0*	9.0

The list is partial. The share of hits here may be higher or lower than overall.
